PINK1 modulator – PINK1 expression modulation; PINK1 immunofluorescence, high-content cytometry, 24 h; Potency, µM (top dose mostly 76.6 µM), for inactives: top-dose activation (PINK1 increase), usual class: activators; hit rate 0.2% among 410,000; AID 624263; active = well fitted activation curve with a large enough effect; inconclusive = small, poorly fitted or top-dose-only effect; inactive = flat fitted curve, though single readings scatter; cell line not stated here;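 further: potency means the concentration at half of the fitted maximal effect; % of control where 0% means no effect; nearly all actives have a fitted effect of over 65% in size; a mitochondrial uncoupler was the plate control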
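Decision-based qHTS: stable cells, 24 h exposure to five compound concentrations, CCCP as control. Fixed cells stained for PINK1 plus nuclear, mitochondrial and cell markers, cytometer read.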
Sfp inh – Sfp phosphopantetheinyl transferase inhibition; Q9F4F7; hit rate 3.5% among 310,000; Potency, µM, inactives show max response, negative = inhibition, usual class: inhibitors; AID 1490; Biochemical Sfp PPTase activity, qHTS; active means well fitted inhibition curve with a large enough effect; inconclusive means small, poorly fitted or top-dose-only effect, or another doubt; inactive means no such curve, though single readings can be large or run the other way;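 further: the enzyme is Sfp with the accession as filed and its product quenches rhodamine fluorescence; potency means the concentration at half of the fitted maximal effect; 0% = enzyme reaction without inhibitor and -100% = no enzyme wells; top concentration of the series not given in the record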
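Compounds were incubated with enzyme (final 15 nM) for 15 min at room temperature before substrate addition started the reaction. Fluorescence at 525 nm excitation, 598 nm emission was recorded immediately and after 30 minutes.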
TRPML1 agonist – activates the human TRPML1 channel; hit rate 0.12% among 410,000; activation, % (concentration not given with the values); TRPML1-expressing cells, Ca2+ dye fluorescence, FDSS; host cell line not named in the record; reference of the full effect not given here; in the data active = activation above about 50%; inconclusive = about 30% to 50%; inactive = below about 30%; further: 0% is about no effect; the text of the record puts the active cut at 80%
Target sequence (Q9GZU1 whole entry, looked up): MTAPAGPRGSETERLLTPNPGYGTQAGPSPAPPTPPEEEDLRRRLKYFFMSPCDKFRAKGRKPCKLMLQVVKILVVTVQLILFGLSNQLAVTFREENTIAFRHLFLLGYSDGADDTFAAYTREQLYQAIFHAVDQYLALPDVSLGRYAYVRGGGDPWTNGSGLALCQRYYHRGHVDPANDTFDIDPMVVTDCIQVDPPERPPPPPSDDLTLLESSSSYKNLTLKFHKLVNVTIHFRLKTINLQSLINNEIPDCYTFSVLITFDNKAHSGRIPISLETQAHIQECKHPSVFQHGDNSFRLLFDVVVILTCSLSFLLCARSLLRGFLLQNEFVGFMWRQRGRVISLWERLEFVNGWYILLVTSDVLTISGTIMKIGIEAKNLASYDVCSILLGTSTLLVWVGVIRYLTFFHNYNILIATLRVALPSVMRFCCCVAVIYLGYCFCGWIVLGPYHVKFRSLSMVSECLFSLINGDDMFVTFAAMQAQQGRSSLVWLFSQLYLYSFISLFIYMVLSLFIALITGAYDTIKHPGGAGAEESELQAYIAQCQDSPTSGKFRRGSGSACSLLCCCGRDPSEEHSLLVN
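Cells: TRPML1-DL, 1X Tet inducer, ~16 h at 37 degrees C/5% CO2. Dye: ABD Ca8 no-wash + quencher, 45-90 min RT. Read: 10 s baseline, compound add, 110 s agonist phase; 54-4 EC80 (4uM final), 110 s antagonist phase.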
TRPML1 inh – human mucolipin-1 channel inhibition | activity change, negative = inhibition, % (concentration not given with the values) | AID 624415 | TRPML1-inducible cells, Ca2+ dye fluorescence, FDSS; stronger effect = lower value; inhibition of EC80 agonist-evoked calcium signal | hit rate 0.02% among 390,000 | Q9GZU1; in the data active means activity change below about -50%; inconclusive means about -30% to -50%; inactive means above about -30%;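 further: stimulus is agonist 54-4 at its EC80 concentration; on the % scale 0 is the no-effect control and ±100 the full control effect; compound concentration not given in the record; the text of the record puts the active cut at -80%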
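TRPML1-DL cells, Tet-induced overnight (~16 h, 37 °C) at 1,500 cells/well, were loaded with Ca8 no-wash dye plus quencher for 45-90 min at room temperature. Compounds were pinned during FDSS kinetic reading; agonist 54-4 at EC80 (4 uM final) then added.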
TRPV1 PAM – potentiators of human vanilloid receptor 1 (TRPV1); TRPV1-expressing cells, Fluo-8 calcium influx, capsaicin EC20 potentiation; host cell line not named in the record; control for the full effect not named in the record; potentiation, % at 8.33 µM; hit rate 0.02% among 320,000; AID 540277; active means potentiation above 80%; inconclusive means 30% to 80%; inactive means below 30%; further: 0% is about no effect
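TRPV1-expressing cells were cultured overnight at 35.5C and loaded with Fluo-8 calcium dye for 40 to 90 min at room temperature. After a 10 s baseline, compound was added and calcium influx was read kinetically for 3 min (ex 480/em 520 nm).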
Menin MLL FP FL – menin-MLL binding inhibition, fluorescein peptide; Fluorescence polarization, fluorescein-MLL peptide displacement from menin; FP activity change, % at 61.4 µM; 290,000 tested, under 10 active; inconclusive = falling polarisation curve, or a change in total fluorescence; inactive = total fluorescence flat and polarisation flat or rising; no compound was filed as active; the % refers to the polarisation; negative = inhibition;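 further: % of control where 0% means no effect; inhibitors lower the polarisation; unlabelled MLL peptide was the positive control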
ClpP mod – qHTS Assay for Activators of ClpP. purified B. subtilis ClpP, FRET peptide cleavage, 20 min. hit rate 1.9% among 340,000. ATP-dependent Clp protease proteolytic subunit (Bacillus subtilis (strain 168)), P80244. Potency, µM (top dose mostly 57.5 µM), without a hit: top-dose activity change, negative = active; active = well fitted falling curve with a large enough effect; inconclusive = small, poorly fitted or top-dose-only effect; inactive = no such curve, though single readings can be large or run the other way; further: potency means the concentration at half of the fitted maximal effect; the source files actives as falling curves though it sought activators and does not explain the sign; nearly all actives have a fitted effect of over 65% in size; many hits overshoot -100%
Target sequence (P80244 whole entry, looked up): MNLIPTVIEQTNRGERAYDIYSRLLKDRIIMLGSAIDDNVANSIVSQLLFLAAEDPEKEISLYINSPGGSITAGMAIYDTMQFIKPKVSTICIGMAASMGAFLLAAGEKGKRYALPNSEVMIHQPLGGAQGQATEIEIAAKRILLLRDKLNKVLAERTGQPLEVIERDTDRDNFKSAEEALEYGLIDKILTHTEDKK
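ClpP 10 microg/mL final, pH 8 Tris/KCl buffer with BSA, glycerol, Tween-20; compound pinned in; FRET-FV substrate; RT 20 min; Ex320/Em430; ΔFRET vs ADEP 5.8 microM, DMSO, no enzyme.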
An asterisk follows results filed as active; ? = inconclusive; · = no result given; [ ] = dose if it differs, or a comment.

Values in the order – PINK1 modulator	Sfp inh	TRPML1 agonist	TRPML1 inh	TRPV1 PAM	Menin MLL FP FL	ClpP mod
1	COc1ccc(CCNC(=O)CSc2nnc(-c3cccc(C)c3)o2)cc1OC
  ·	-4%	-0.4	1	22	0.1	-0.7%
2	N#C/C(=C\c1cccnc1)c1ccc(Br)cc1
  -1.5%	4%	4.3	7	15	3.5	-0.5%
3	Cc1cccc(CN2CCNC2=O)c1
  0.3%[38.3 µM]	14%	0.1	-2	21	6.3	1.0%
4	COc1ccc(N2CCN(C(c3ccccc3)c3nnnn3Cc3ccc(F)cc3)CC2)cc1 (configuration not stated)
  1.5%	13%	0.3	20	0	-0.5	-7.1%
5	COc1ccc(S(=O)(=O)N2CCCCCC2)cc1NC(=O)CCc1cc(OC)c(OC)c(OC)c1
  1.6%	·	-0.6	-13	·	·	1.7%
6	Cc1c(N)cccc1-n1cnnn1
  1.4%	23%	-0.6	-3	5	3.0	0.6%
7	COc1ccc(CC(=O)OCC(=O)NCc2ccc(Cl)cc2)cc1
  2.8%	14%	0.7	-2	-21	-1.1	·
8	CCOC(=O)c1c(CN2CCCCC2)n(C)c2cc(Br)c(O)cc12
  -0.5%[38.3 µM]	14%	0.7	-5	-11	-3.5	-2.5%
9	Cc1c(C(=O)NC(=S)Nc2ccc(N3CCOCC3)cc2)cccc1[N+](=O)[O-]
  3.0%	8%	-0.3	14	-1	2.7	·
10	O=C(c1cc2cc([N+](=O)[O-])ccc2oc1=O)N1CCN(C2CCCCC2)CC1
  0.1%	-2%	-0.3	16	-9	-4.3	·
11	COc1ccc(C(CNC(=O)c2cccc(NC(=O)c3cccs3)c2)N2CCCC2)cc1 (configuration not stated)
  3.6%	·	0.9	16	3	·	-2.0%
12	CCOC(=O)C1CCCN(C(=O)C(C)Oc2ccc(Cl)cc2Cl)C1 (configuration not stated)
  1.8%[38.3 µM]	14%	1.2	-7	·	2.4	-2.1%
13	O=C(CSc1nnc(-c2ccc(O)cc2)o1)NNC(=O)c1ccncc1
  1.4%	-9%	0.2	-1	2	·	·
14	COC(=O)c1ccc(NC(=O)CCS(=O)(=O)c2ccc(C)cc2)cc1
  1.5%	5%	-0.3	-13	-15	-1.0	0.9%
15	Cc1ccc(C)c(N2CCN(CC(=O)Nc3ccc([N+](=O)[O-])cc3C(=O)Nc3ccccc3F)CC2)c1
  2.3%[38.3 µM]	8%	0.8	13	-15	6.4	0.9%
16	O=C(NCCN1CCN(C(=O)c2cccc([N+](=O)[O-])c2)CC1)C(=O)NCc1ccc(Cl)cc1
  -3.5%	14%	0.9	-11	3	1.6	1.0%
17	Fc1ccccc1OCC1CCCN(Cc2nc(CC3CC3)no2)C1 (configuration not stated)
  1.8%	8%	-0.3	1	-11	0.4	·
18	NS(=O)(=O)c1ccc(CCNC(=O)COC(=O)CCSc2ccc(Cl)cc2)cc1
  0.3%	4%	0.2	-1	-6	-0.3	0.6%
19	Cc1onc(-c2ccccc2)c1C(=O)Nc1nc(-c2ccccc2)cs1
  3.6%	-1%	2.7	-11	10	6.9	-19%
20	CCCCNC(=O)C(=O)Nc1cc2c3c(c1)CCC(=O)N3CCC2
  0.6%	16%	-0.4	0	7	·	-0.2%
21	CCN(CC)c1nc2c(S(=O)(=O)c3cccc(Cl)c3)nnn2c2ccsc12
  -0.2%	·	1.4	3	·	·	?
22	Cc1ccc(C)c(NC(=S)N(C2CCCCC2)C(C)c2cccnc2)c1 (configuration not stated)
  -0.9%	17%	0.8	3	-8	3.0	·
23	COc1cccc(-c2nnc(NC(=O)c3ccco3)s2)c1
  1.9%	6%	0.8	13	-2	·	-15%
24	Cc1cc(C)cc(N2CC(O)=C(c3nc4ccccc4c(=O)[nH]3)C2=N)c1
  24%	6%	3.8	-9	3	8.0	·
25	O=C(CNC(=O)c1ccc(Cl)c([N+](=O)[O-])c1)OCN1C(=O)c2ccccc2C1=O
  -3.9%	·	1.9	-11	-1	·	1.9%
26	Cc1ccc2nsnc2c1NC(=O)c1sc2ccccc2c1Cl
  6.7%	-14%	-0.6	6	16	-0.2	2.5%
27	COC(=O)c1ccccc1NC(=O)NCCc1c(C)nn(C)c1C
  -0.9%	·	0.3	8	·	·	?
28	O=C(c1cccn(Cc2ccc(Cl)c(Cl)c2)c1=O)N1CCOCC1
  2.9%[38.3 µM]	-4%	-0.2	3	·	1.2	-1.2%
29	O=C(CCCN1C(=O)/C(=C\c2cccc(Br)c2)SC1=S)Nc1cccnc1
  0.7%	?	1.2	-1	8	4.9	·
30	Cc1cccc(CNC(=O)C2CCN(S(=O)(=O)c3cccc4nonc34)CC2)c1
  7.1%	·	3.3	-9	·	·	0.8%
31	CCC1Nc2ncnc(N3CCOCC3)c2N(Cc2ccc(OC)cc2)C1=O (configuration not stated)
  1.2%	·	0.3	11	·	·	-2.7%
32	COc1cccc(CCNC(=O)c2ccc(Cn3c(SCc4ccccc4)nc4cccnc43)cc2)c1
  -1.1%	·	2.9	35	·	·	25µM*
33	CC(=O)Nc1ccc(S(=O)(=O)NCC(=O)OCC(=O)Nc2sccc2C(N)=O)cc1
  -1.3%	·	-0.6	5	6	·	-9.5%
34	COc1ccc(NC(=O)CSCC(=O)N(C)CC(=O)Nc2c(C)cccc2C)cc1
  -0.3%	·	3.3	0	-8	·	-1.6%
35	CC1CCN(c2ccc(-c3ccc(NC(=O)C(F)(F)F)cc3)nn2)CC1
  0.7%	22%	-0.7	19	8	0.5	-2.9%
36	C=CCc1ccc(OCc2ccc(C(=O)O)o2)c(OC)c1
  2.0%	11%	0.3	2	-7	6.0	·
37	C=CCOC(=O)C1=C[C@@H](c2ccc(Br)cc2)C[C@@H](OCCCCO)O1
  -0.5%	·	1.4	33	·	·	-0.5%
38	CCOC(=O)CCCCCC(=O)Nc1ccc2c(c1)CC(=O)N([C@@H](C)CO)C[C@@H](C)[C@@H](CN(C)C(=O)Nc1ccc(C(F)(F)F)cc1)O2
  1.8%	·	-0.6	7	·	·	0.9%
39	Cc1nc(-c2cccc(Cl)c2)n[nH]1
  -0.8%	3%	0.9	12	8	1.3	-3.3%
40	O=C(NCCC1=CCCCC1)N[C@@H](Cc1ccccc1)C(=O)O
  0.2%	20%	-0.7	3	2	0.9	-1.2%
41	CCc1onc(C)c1C(=O)Nc1ccc(N2CCOCC2)cc1
  1.6%	·	-0.6	-9	7	·	0.3%
42	CCOC(=O)C1CCCN(C(=O)c2ccc(Cl)cc2)C1 (configuration not stated)
  1.0%	27%	-0.1	-5	0	-0.3	·
43	CCN(CC)S(=O)(=O)c1ccc(S(=O)(=O)NCC2CCCO2)cc1 (configuration not stated)
  8.7%	25%	0.5	-2	-1	0.3	-0.2%
44	COC(C/C=C/C(=O)[C@H](C)OCc1ccccc1)OC
  -0.4%	·	1.5	6	·	·	0.4%
45	CC1=CC(C)C2(COC(=O)Nc3ccccc3)COC(C)C1C2C (configuration not stated)
  3.8%	1%	-0.6	4	-12	-1.3	·
46	Cn1cccc1/C=C1\SC(=S)N(NC(=O)c2ccccc2)C1=O
  3.0%	-22%	-0.3	-6	12	?	0.0%
47	N#CC(C#N)=C1C(=O)N(CCN2CCOCC2)c2ccccc21
  -0.8%	-13%	-0.4	4	13	7.5	·
48	CCNC(=O)COC(=O)c1cccc(Br)c1
  2.5%	-4%	0.8	-6	-16	0.5	·
49	COc1ccc(CCNc2cc(C)nc3c(-c4ccc(Cl)cc4)cnn23)cc1OC
  0.8%	-18%	0.2	16	4	-1.8	8.9µM*
50	CC(NC(=O)C1CCN(CCOc2ccc(Cl)cc2)CC1)c1cccc2ccccc12 (configuration not stated)
  0.6%	·	-0.8	26	·	·	-8.6%
51	COc1ccc(CN(C)C(=O)CCl)cc1
  8.5%	1%	0.0	4	-5	0.9	0.8%
52	CC(C)COc1ccc(-c2cc(C(=O)NN)[nH]n2)cc1
  3.5%	10%	1.1	1	-9	1.3	-0.5%
53	Cc1oc(-c2ccccc2)nc1Cn1c(=O)cc(-c2ccccc2)c2c(C)nn(C)c21
  -1.1%	·	0.7	4	·	·	?
54	COCc1nc2cccnc2n1C1CCN(S(=O)(=O)N(C)C)CC1
  -0.9%	·	-1.0	16	·	·	0.0%
55	CCOC(=O)C1(CCOc2ccccc2)CCN(Cc2cccc3c2OCO3)CC1
  9.5%	0%	-0.9	-8	-3	-3.2	0.8%
56	COc1cc(S(=O)(=O)Nc2ccc(C)cc2)ccc1N=Cc1c(C)c(C#N)c(=O)n(C)c1O
  23%	8%	3.2	4	11	?	·
57	CCOc1ccc(S(=O)(=O)NCc2cccnc2)c2ccccc12
  1.5%	9%	0.1	-15	4	5.2	·
58	COc1ccc(S(=O)(=O)Nc2cccnc2)cc1
  0.3%	16%	·	·	1	2.1	0.8%
59	COc1ccc(CCNC(=O)c2ccc3c(c2)CCN3S(=O)(=O)c2ccc(C)cc2)cc1
  -1.5%	·	3.5	17	·	·	0.6%
60	COc1cccc(-c2nc(NCc3ccc(OC)cc3OC)c3ccccc3n2)c1
  1.5%	?	·	·	·	-0.5	·

Other records
Values in the order – PINK1 modulator	Sfp inh	TRPML1 agonist	TRPML1 inh	TRPV1 PAM	Menin MLL FP FL	ClpP mod
61	COc1ccc(S(=O)(=O)N2CCN(C(=O)c3ccccn3)CC2)cc1
  6.8%	·	0.2	8	-28	·	·
62	Cc1ccc(-n2c3nc(=O)[nH]c(=O)c-3cc3c(C)nn(-c4ccccc4)c32)cc1Cl
  1.6%	·	-0.7	-9	·	·	4.0%
63	Cc1cc(C)c(Cn2c(=O)[nH][nH]c2=O)cc1Cn1c(=O)[nH][nH]c1=O
  1.0%	·	-0.7	9	·	·	0.6%
64	CCCNC(=O)C1(C)CCN(Cc2ccc(Oc3ccccc3)cc2)C1 (configuration not stated)
  0.5%	·	-0.9	·	·	·	0.2%
65	CS(=O)(=O)c1ccc2nc(NC(=O)C3C4C=CC(C4)C3C(=O)O)sc2c1 (configuration not stated)
  1.1%	-7%	-0.2	-10	-2	2.2	-0.3%
66	CC(C)(C)C(=O)N/C(N)=N/c1nc2ccccc2o1
  4.6%	21%	2.4	4	6	0.0	·
67	CC(NC(=O)c1ccccc1F)c1cccc2ccccc12 (configuration not stated)
  3.2%	·	0.1	29	22	·	0.3%
